LANA-nucl inh: inhibitors of KSHV LANA-nucleosome binding, primary screen, biochemical, fluorescence polarization, FITC-LANA1-23, chicken nucleosomes | FITC-LANA1-23 / chicken nucleosome fluorescence polarization; stronger effect = lower value | z-score (test concentration not listed) | hit rate 0.3% among 51,000 | AID 720717, 2013;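 active = both repeat wells score below -2 in polarization z-score versus plate sample wells, excluding overly bright wells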;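 note: 100 nL library stock added to about 30 µL; numbers are from one replicate; some results filed as inactive read as strong as hits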
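Material: Purified chicken nucleosomes with FITC-labelled LANA N-terminal peptide (1-23) | Reagent: 50 nM FITC-LANA1-23 probe | Medium: TEN-BT buffer, pH 7.5 | Times: 10–45 min incubation at room temperature | Detection: Fluorescence polarization | Replication: Duplicates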
BasE inh: BasE siderophore enzyme inhibitors, primary screen, biochemical, Acinetobacter baumannii ATCC 17978, fluorescence polarization; purified BasE, fluorescence polarization binding displacement; inhibition, % (test concentration not listed); hit rate 0.1% among 84,000; AID 485350, 2010;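 active = both replicates above 25% with normal brightness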;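 note: 0% = negative plate control signal and 100% = positive plate control signal; stock transfer was 100 nL into about 30 µL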
* marks the source's active call; other numbers are inactive results; x = no result given; & = joins results of further samples. This is a subset; count on the stated rates, not on these rows.

SMILES | LANA-nucl inh | BasE inh
COc1cc(CN2c3ccccc3N3CCCCCC32)cc(OC)c1OC (configuration not stated) | x | 0.6
Nc1ccc(S(=O)(=O)N2CCSC2C(=O)O)cc1 (configuration not stated) | 0.13 | -0.8
COCCN(Cc1nc2ccccc2c(=O)[nH]1)C(=O)c1ccc(S(C)(=O)=O)cc1 | x | 6.5
COc1ccccc1-c1nnc(CC(=O)O)o1 | -0.23 | 4.7
Cc1cc(C)n(-c2ccc3ccccc3n2)n1 | -0.23 | 1.1
O=C(COC(=O)C1CCN(c2ccc(C(F)(F)F)cn2)CC1)NC1CCCCC1 | x | 1.5
Cc1nc(NCCC(=O)O)c2c3c(sc2n1)CCCC3 | 0.024 | 2.5
CCSc1nnc(-c2cccc(Cl)c2)n1CC | x | 2.7
O=C(O)C1C2C=CC(C2)C1C(=O)N1CCN(Cc2ccccc2)CC1 (configuration not stated) | 0.98 | -0.4
COC(=O)Cn1c(=NC(=O)c2ccccc2)sc2cc(OC)ccc21 | 0.018 | -0.5
CCc1ccc(C(=O)c2cc3ccc(O)cc3oc2=O)cc1 | -0.49 | -1.1
CN1/C(=C\C=N\c2ccccn2)C(C)(C)c2ccccc21 | x | -0.8
c1ccc(-n2nnnc2N2CCCC2)cc1 | -0.29 | -0.2
COc1ccc(CCNC(=O)c2nc3ccccc3c(=O)n2-n2cccc2)cc1OC | x | 2.2
N#Cc1oc2ccccc2c1NC(=O)Cc1c(Cl)cccc1Cl | x | 0.4
O=C1c2ccccc2-c2c1c1ccccc1c(=O)n2CC1CC1 | x | -1.2
O=C(O)c1c[nH]c2ccccc2c1=O | 0.26 | 3.6
N#C/C(=C\c1ccsc1)C(=O)NCc1ccco1 | x | 1.4
Oc1ccc2c(c1)c(-c1ccccc1)nn2-c1ccccc1 | 0.51 | 1.5
COC(=O)C(C)NC(=O)C1CCCCC1 (configuration not stated) | x | 4.6
CCS(=O)c1ccccc1C(=O)OC(C)C(=O)Nc1ncc(Cl)cc1Cl (configuration not stated) | x | -1.0
Cc1ccc(C)c(C(=O)CCC(=O)NCc2ccc3c(c2)OCO3)c1 | x | -0.7
O=C1c2ccccc2C(=O)C2(O)OCCOC12O (configuration not stated) | 0.25 | 3.9
O=c1c2ccccc2sn1-c1ccc(S(=O)(=O)N2CCOCC2)cc1 | x | 0.4
COCCNC(=O)c1c[nH]c2ccccc2c1=O | 0.95 | 0.2
C=CCC(Nc1ccc(OC)c(OC)c1)c1ccco1 (configuration not stated) | 1.1 | 1.8
Cc1oc(-c2ccccc2F)nc1CSCC(=O)NC1CC1 | 2.5 | -3.6
CC1(C)CC(=NN=C2CC(C)(C)NC(C)(C)C2)CC(C)(C)N1 | 0.18 | 3.2
Cc1ccccc1-n1c(SC2CCOC2=O)nnc1-c1ccncc1 (configuration not stated) | x | 0.8
COc1ccc(NC(=O)C2C3C=CC4(O3)C2C(=O)N(CCCN2CCOCC2)C4C(=O)NC2CCCC(C)C2C)cc1 (configuration not stated) | -1.7 | 2.2
CN(C)S(=O)(=O)N1CCC(c2nn(-c3ccccc3)c(=O)o2)CC1 | -1.4 | 1.5
O=C1CN(CC(=O)Nc2ccc(C(F)(F)F)cc2)CCN1 | x | -1.0
CC(=O)N1CCN(C(=O)c2ccccc2CSc2nc(C)cs2)CC1 | x | -2.0
c1csc(-c2nnc(CSc3nnc(-c4ccc5c(c4)OCO5)o3)o2)c1 | x | 1.3
NCCCS(=O)(=O)O | 0.52 | 0.1
C/C(Nc1ccc(OC(F)(F)F)cc1)=C1/CCOC1=O | -0.91 | x
CC(/C=N/N1CCOCC1)=C\c1ccccc1 | x | 1.0
COc1ccc(/C(N)=N/OC(=O)c2c(-c3ccccc3Cl)noc2C)cc1 | -0.25 | 2.1
NCCCCOc1ccc(F)cc1 | x | 0.3
CC(=O)OCC(=O)NCc1ccccc1Cl | x | 1.1
CCCCC1=NN(C(=O)c2ccccc2)C(O)(C(F)(F)F)C1 (configuration not stated) | x | 2.7
Cc1c(C#N)c(N)n(CCN2CCOCC2)c1C | x | 7.9
O=C(CC(c1ccccc1)c1ccccc1)N1CCc2ccccc2C1 | x | 0.2
CC(C)(C)C1=NOC(O)(C(F)(F)F)C1 (configuration not stated) | x | 2.2
O=c1sc2ccccc2n1CCCOc1ccccc1 | 0.86 | -1.4
CC12CCC(C/C1=N/OC(=O)c1cc3ccccc3o1)C2(C)C (configuration not stated) | 0.45 | 5.9
Cn1c2c(c3ccccc31)CC/C2=N\O | -0.42 | -0.4
CCCCN(C)c1nnc(NC(=O)Nc2ccc(CC)cc2)s1 | 0.11 | 0.0
O=C(c1ccc(F)cc1)C1CCN(S(=O)(=O)c2ccc(F)cc2)CC1 | -0.93 | 1.7
CC(C)(O)c1ccccc1CC[C@@H](SCC1(CC(=O)O)CC1)c1cccc(/C=C/c2ccc3ccc(Cl)cc3n2)c1 | 0.072&-0.45 | x
COC(=O)c1ccc(CN(c2ccc(OC)cc2)S(=O)(=O)c2cccc(C)c2)o1 | x | 1.4
S=c1[nH]nc(-c2ccccc2)n1/N=C/C=C/c1ccco1 | 0.21 | 3.2
Cc1ccc2nc(Nc3ccccc3)nc(-c3ccccc3)c2c1 | x | 1.7
CCOC(=O)NNc1ncc(C(F)(F)F)cc1Cl | -0.011 | -1.0
CCCCN(C1CCN(C(C)=O)CC1)S(=O)(=O)c1csc(C(N)=O)c1 | x | -0.3
O=C1CN(C(=O)CSc2nnc(-c3ccccc3)n2-c2ccccc2)c2ccccc2N1 | x | 0.5
Cc1nc2ccccn2c1/C(O)=C1\C(=O)C(=O)N(CCCN2CCOCC2)C1c1cccc(F)c1 (configuration not stated) | -0.88 | 6.3
O=c1[nH]c(=O)n([C@H]2CC(O)[C@@H](CO)O2)cc1Br (some centres not stated) | x | 2.9
O=C(O)C(Cc1ccc(O)cc1)NC1CCS(=O)(=O)C1 (configuration not stated) | -0.18 | -0.2
OC1C2C3CC4C2C(O)C2C1C3C42 (configuration not stated) | x | -1.5

By substructure: the entries above with an aryl thioether with sulfur outside any ring
SMILES | LANA-nucl inh | BasE inh
CCSc1nnc(-c2cccc(Cl)c2)n1CC | x | 2.7
Cc1ccccc1-n1c(SC2CCOC2=O)nnc1-c1ccncc1 (configuration not stated) | x | 0.8
CC(=O)N1CCN(C(=O)c2ccccc2CSc2nc(C)cs2)CC1 | x | -2.0
c1csc(-c2nnc(CSc3nnc(-c4ccc5c(c4)OCO5)o3)o2)c1 | x | 1.3
O=C1CN(C(=O)CSc2nnc(-c3ccccc3)n2-c2ccccc2)c2ccccc2N1 | x | 0.5

Later entries.
SMILES | LANA-nucl inh | BasE inh
NS(=O)(=O)c1ccc(N/C=C2/CCCCC2=O)cc1 | 0.27 | 1.2
COc1cccc(C2NC(=O)NC3=C2CCc2ccccc23)c1 (configuration not stated) | 2.3 | -2.5
CN(C)C1(CNC(=O)COc2ccc3oc4c(c3c2)CCCC4)CCCCC1 | x | -0.8
Cn1cc(/C=C2\SC(=NC3CCCCC3)NC2=O)cn1 | x | -3.9
O=C(NC(=S)N1CCN(Cc2ccccc2)CC1)c1ccccc1 | 1.9 | 0.0
CC(=O)Nc1ccc(S(=O)(=O)N2CCC(C)CC2)cc1 | -0.68 | -0.8
Nc1c(C(=O)NC2CCCCC2)sc(=S)n1-c1ccccc1 | 0.37 | 3.8
Cc1cc2nc(NCC3COc4ccccc4O3)c3ccccc3n2n1 (configuration not stated) | x | 1.2
Cc1ccc(/C=C2\SC(=S)N(C(C(=O)O)C(C)C)C2=O)cc1 (configuration not stated) | x | 0.7
CCOC(=O)c1c[nH]c2c(C)cccc2c1=O | 0.23 | -0.4
Cc1cc(/C=C/C(=O)N(C)CC2COc3ccccc3O2)c(C)n1Cc1ccco1 (configuration not stated) | x | -0.4
NC(=S)Cc1nc(-c2ccccc2)cs1 | -0.076 | -0.1
Cc1cc(C)c2c(N)c(C(=O)c3ccccc3O)sc2n1 | 1.2 | 0.1
Cc1ccc(C(=O)/C=C/N(C)C)cn1 | 0.19 | x
COc1ccc(-c2ocnc2C(=O)NCCc2ccccc2)cc1 | 0.57 | 1.3
O=C(NCC1CCN(C2CCCC2)C1)c1ccc(N2CCCS2(=O)=O)cc1 (configuration not stated) | x | 0.5
CCN1C(=O)N(CC)C2C1N(C)C(=O)N2C(C)(C)C (configuration not stated) | 0.2 | -2.1
CCOP(C)(=O)C1(C(=O)OCc2ccccc2)CC1 (configuration not stated) | 0.15 | 1.7
CC(NS(=O)(=O)c1ccccc1)C(=O)Nc1ccccc1F (configuration not stated) | 0.74 | -1.8
COc1ccc(S(=O)(=O)N(CC(=O)NCC2CCCO2)c2ccc(C)cc2)cc1OC (configuration not stated) | -0.053 | -0.8
Cc1sc2nc3scc(CC(=O)NCCO)n3c(=O)c2c1C | -0.58 | 0.9
COc1ccc(OC)c2c1CC(C)(C)N=C2SC | x | -0.4
COC(=O)c1c(N)sc2c1CCc1ccccc1-2 | -0.92 | 1.0
O=C1c2ccccc2C(=O)N1Cc1csc(-c2cccs2)n1 | -0.4 | 2.1
CN(C)CCCN1C(=O)C2C3C=CC(C3)C2C1=O (configuration not stated) | x | 0.2
O=c1[nH]nc(CSc2ccc(Cl)cc2)c2ccccc12 | x | 2.1
O=C(CN1CCc2ccccc21)Nc1cccc(F)c1 | x | -0.8
CC(=O)N1c2ccccc2C(=O)C1N(C)c1ccc(C)cc1 (configuration not stated) | x | -0.3
CC1(C)CC(=O)C(=CN2CCCCC2)C(=O)C1 | -0.18 | -2.3
COc1ccccc1C1CCN(C(=O)c2scc(S(=O)(=O)c3ccc(Cl)cc3)c2C)CC1 | x | 2.0
COc1ccc(Cl)cc1NC(=O)c1sc(=S)n(C)c1N | x | 2.4
COc1ccc2c(c1)c(=O)oc1cc(O)ccc12 | x | 0.8
CN(Cc1ccccc1)C(=O)COc1ccc(S(=O)(=O)N2CCCC2)cc1 | 0.33 | 0.6
C=CCSC1=N/C(=C\c2ccsc2)C(=O)S1 | 0.79 | 3.1
CC(C)n1nnnc1SCC(=O)c1ccc(F)cc1 | 1.3 | 3.5
NC1=NC2(CCCCC2)n2c(nc3ccccc32)N1 | 0.46 | -5.0&-5.2
O=c1/c(=C/C2=Cc3ccccc3OC2)sc2nc3ccccc3n12 | 2.4 | -4.8
CN(C)S(=O)(=O)N1CCC(C(=O)O)(c2ccccc2)CC1 | -0.3 | 3.2
Cc1ccc(CN)cc1F | x | -1.3
O=C(COc1ccccc1)NS(=O)(=O)c1ccc(N=NN2CCOCC2)cc1 | 0.067 | -0.8
O=C(O)c1ccccc1C(=O)NCc1ccc(N2CCCC2=O)cc1 | 0.035 | 1.4
O=C(Oc1ccc(Cl)cc1Cl)c1cccnc1SCCS(=O)(=O)c1ccccc1 | x | 0.6
CC(C)OC(=O)Cn1c(C(=O)OC(C)C)cc2c1ccn2C | 0.59 | -0.3
CSc1nnc(-c2cc3ccccc3cc2O)n1C | -0.83 | 0.8
COC(=O)c1sccc1OCc1ccccc1 | -0.58 | x

6 compounds picked at random from the list so far:
SMILES | LANA-nucl inh | BasE inh
COc1cccc(C2NC(=O)NC3=C2CCc2ccccc23)c1 (configuration not stated) | 2.3 | -2.5
C=CCC(Nc1ccc(OC)c(OC)c1)c1ccco1 (configuration not stated) | 1.1 | 1.8
N#Cc1oc2ccccc2c1NC(=O)Cc1c(Cl)cccc1Cl | x | 0.4
Nc1c(C(=O)NC2CCCCC2)sc(=S)n1-c1ccccc1 | 0.37 | 3.8
O=C(CC(c1ccccc1)c1ccccc1)N1CCc2ccccc2C1 | x | 0.2
CC(C)n1nnnc1SCC(=O)c1ccc(F)cc1 | 1.3 | 3.5

Record cards, as listed above. Order of values: LANA-nucl inh	BasE inh
Entry for COc1ccc2c(c1)c(=O)oc1cc(O)ccc12 = x	0.8
Entry for CN(Cc1ccccc1)C(=O)COc1ccc(S(=O)(=O)N2CCCC2)cc1 = 0.33	0.6
Entry for Cc1ccc(CN)cc1F = x	-1.3

The list continues.
SMILES | LANA-nucl inh | BasE inh
COC1CCC(C(=O)Nc2nc(-c3ccc4c(c3)CCN4S(C)(=O)=O)cs2)CC1 (configuration not stated) | 0.45 | -0.8
CN1C2CC[C@@H]1CC(OC(=O)[C@H](CO)c1ccccc1)C2 (some centres not stated) | -0.22&0.26 | -3.7
CSC1=C(C#N)C(=O)NC(c2ccc(Cl)cc2)S1 (configuration not stated) | x | 5.0
CCC(c1ccccc1)c1nn2c(-c3cccnc3)nnc2s1 (configuration not stated) | -0.84 | -0.1
O=C(O)C1C2C=CC(C2)C1C(=O)NCC1CCCCC1 (configuration not stated) | 1.7 | -5.7
CC(C)NC(=O)N1CCc2sccc2C1c1ccc(Cl)cc1 (configuration not stated) | x | -2.6
CCN(CC)CC1OCc2ccccc2CO1 | 0.59 | -1.4
O=C(O)CSCC(=O)N1Cc2ccccc2CC1C(=O)O (configuration not stated) | x | 2.8
Cc1nc(-c2ccc(-c3cccs3)s2)sc1-c1ccnn1C(=O)C(C)(C)C | x | 3.4
Cc1c2cnn(CC(=O)NC3CC3)c(=O)c2c(C)n1Cc1ccccc1 | 0.92 | 3.0

A second format for part of the listing above.
> O=C(O)CSCC(=O)N1Cc2ccccc2CC1C(=O)O (configuration not stated)
  LANA-nucl inh: x | BasE inh: 2.8

> Cc1nc(-c2ccc(-c3cccs3)s2)sc1-c1ccnn1C(=O)C(C)(C)C
  LANA-nucl inh: x | BasE inh: 3.4
